# Source: PubChem BioAssay
# gsp antag: qHTS for Antagonists of gsp, the Etiologic Mutation Responsible for Fibrous Dysplasia/McCune-Albright Syndrome: qHTS. gsp-mutant cells, cAMP HTRF, 30 min; control for the full effect not named in the record. Potency, µM (series often up to 76.9 µM), without a hit: at the top dose activity change, negative = inhibition, actives largely listed as inhibitors. hit rate 0.4% among 340,000. AID 624288, 2012; active = falling curve of any shape with a large fitted effect; inconclusive = falling curve, mostly with a smaller effect; inactive = flat or rising curve; cell line not stated here;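 note: intracellular cAMP measured with PDE inhibitor Ro 20-1724 present during compound exposure; potency is the fitted concentration of half-maximal effect; % is set by controls: 0 for no effect and ±100 for the full control effect; nearly all actives have a fitted effect of over 65% in size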
#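 G418-selected cells were plated in DMEM/10% FBS for 16-24 h at 37C, then treated with compounds plus the PDE inhibitor […] (300 uM solution added) for 30 min at 37C. Intracellular cAMP was measured by HTRF after 30 min lysis at room temperature.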
# gsp agonist: qHTS for Agonist of gsp, the Etiologic Mutation Responsible for Fibrous Dysplasia/McCune-Albright Syndrome: qHTS. hit rate 0.13% among 340,000. Potency, µM (series often up to 76.9 µM), for the others: at the top dose activation (cAMP increase), hits mostly activators. gsp mutant cells, cAMP HTRF, 30 min; control for the full effect not named in the record; active = well fitted activation curve with a large enough effect; inconclusive = small, poorly fitted or top-dose-only effect, or another doubt; inactive = no such curve, though single readings can be large or run the other way; cell line not stated here;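 note: phosphodiesterase inhibitor Ro 20-1724 added with compounds to block cAMP breakdown; potency is the fitted concentration of half-maximal effect; nearly all actives have a fitted effect of over 60% in size; about a fifth of the inactives were tested at one dose only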
#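 Cells in DMEM/10% FBS with G418 were pretreated with compounds in DMSO plus […] (300 uM stock) for 30 min at 37C. cAMP was measured by HTRF (cAMP-d2 plus anti-cAMP antibody-K) after 30 min at room temperature.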
# Menin MLL FP FL: qHTS Assay for Inhibitors Targeting the Menin-MLL Interaction in MLL Related Leukemias: Competition With Fluorescein Labeled MLL-derived Peptide. AID 1766, 2009. FP activity change, % at 61.4 µM. Fluorescence polarization, fluorescein-MLL peptide displacement from menin. 290,000 tested, under 10 active; inconclusive = falling polarisation curve, or a change in total fluorescence; inactive = total fluorescence flat and polarisation flat or rising; no compound was filed as active; the % refers to the polarisation; negative = inhibition;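 note: % of control where 0% means no effect; inhibitors lower the polarisation; unlabelled MLL peptide was the positive control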
# CtBP-E1A blk: qHTS Assay for Inhibitors of the CtBP/E1A Interaction | CtBP / adenovirus E1A interaction (AlphaScreen) | AlphaScreen GST-E1A/His-CtBP binding, 1536-well; active compounds read low; control for the full effect not named in the record | activity change, % (test concentration not listed) | hit rate 0.49% among 340,000; in the data active means activity change below about -65%; inconclusive means about -30% to -65%; inactive means above about -30%; note: % is set by controls: 0 for no effect and ±100 for the full control effect
#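 Homogeneous bead-based format: GST-tagged E1A captured on glutathione donor beads, His-tagged CtBP on nickel acceptor beads; compounds precede bead addition by 2 h at 37 °C.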
# TRPV1 PAM: HTS Assay for Compounds that Act as Potentiators of the Vanilloid Receptor 1; Transient receptor potential cation channel subfamily V member 1 (Homo sapiens), Q8NER1; TRPV1-expressing cells, Fluo-8 calcium influx, capsaicin EC20 potentiation; host cell line not named in the record; control for the full effect not named in the record; potentiation, % at 8.33 µM; hit rate 0.02% among 320,000; AID 540277, 2011; active means potentiation above 80%; inconclusive means 30% to 80%; inactive means below 30%; note: 0% is about no effect
# Target sequence (Q8NER1 whole entry, looked up): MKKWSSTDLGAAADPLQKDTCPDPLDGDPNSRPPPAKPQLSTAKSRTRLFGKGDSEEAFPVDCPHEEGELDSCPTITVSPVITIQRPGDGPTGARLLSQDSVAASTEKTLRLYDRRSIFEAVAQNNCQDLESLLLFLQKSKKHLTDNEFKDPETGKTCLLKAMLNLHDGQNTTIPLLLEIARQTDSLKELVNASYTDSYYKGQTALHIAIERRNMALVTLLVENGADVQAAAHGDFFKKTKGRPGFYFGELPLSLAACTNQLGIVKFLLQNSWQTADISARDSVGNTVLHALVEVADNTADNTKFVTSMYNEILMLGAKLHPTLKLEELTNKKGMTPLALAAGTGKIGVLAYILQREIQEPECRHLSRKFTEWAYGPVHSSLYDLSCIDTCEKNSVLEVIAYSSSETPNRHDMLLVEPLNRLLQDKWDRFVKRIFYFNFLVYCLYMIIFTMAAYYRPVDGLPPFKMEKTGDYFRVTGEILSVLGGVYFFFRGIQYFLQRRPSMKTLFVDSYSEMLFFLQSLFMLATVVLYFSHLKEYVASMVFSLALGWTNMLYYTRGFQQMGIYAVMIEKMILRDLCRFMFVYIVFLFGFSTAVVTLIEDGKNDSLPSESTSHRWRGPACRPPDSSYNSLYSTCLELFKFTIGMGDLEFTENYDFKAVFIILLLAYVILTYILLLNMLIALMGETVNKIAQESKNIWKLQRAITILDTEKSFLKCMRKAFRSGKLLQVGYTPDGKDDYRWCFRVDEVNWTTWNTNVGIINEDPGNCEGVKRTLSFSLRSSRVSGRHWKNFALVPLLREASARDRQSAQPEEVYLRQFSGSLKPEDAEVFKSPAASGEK
#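 Cells expressing TRPV1 were dye-loaded with Fluo-8 and read kinetically: 10 s baseline, 3 min after compound (agonist portion), then 2 min after EC20 capsaicin (allosteric enhancer portion). Calcium-bound dye fluorescence at 480/520 nm.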
# Sfp PPTase inh: qHTS Assay for Inhibitors of Bacillus subtilis Sfp phosphopantetheinyl transferase (PPTase). 4'-phosphopantetheinyl transferase ffp (Bacillus subtilis), Q9F4F7. Biochemical Sfp PPTase activity, qHTS. Potency, µM, without a hit: max response, negative = inhibition, hits mostly inhibitors. hit rate 3.5% among 310,000. AID 1490, 2009; active = well fitted inhibition curve with a large enough effect; inconclusive = small, poorly fitted or top-dose-only effect, or another doubt; inactive = no such curve, though single readings can be large or run the other way;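 note: the enzyme is Sfp with the accession as filed and its product quenches rhodamine fluorescence; potency is the fitted concentration of half-maximal effect; 0% = enzyme reaction without inhibitor and -100% = no enzyme wells; top concentration of the series not given in the record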
#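 Reaction rates are the 30-min fluorescence difference (ex 525, em 598 nm) in wells containing 15 nM Sfp, 5 uM rhodamine-CoA and 12.5 uM BHQ-2-YbbR at pH 7.6 with 10 mM MgCl2.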
# ClpP mod: qHTS Assay for Activators of ClpP | ATP-dependent Clp protease proteolytic subunit (Bacillus subtilis (strain 168)), P80244 | purified B. subtilis ClpP, FRET peptide cleavage, 20 min | Potency, µM (titrated, usually from 57.5 µM), for the others: at the top dose activity change, negative = active | hit rate 1.9% among 340,000 | AID 651965, 2013; active = well fitted falling curve with a large enough effect; inconclusive = small, poorly fitted or top-dose-only effect; inactive = no such curve, though single readings can be large or run the other way; note: potency is the fitted concentration of half-maximal effect; the source files actives as falling curves though it sought activators and does not explain the sign; nearly all actives have a fitted effect of over 65% in size; many hits overshoot -100%
# Target sequence (P80244 whole entry, looked up): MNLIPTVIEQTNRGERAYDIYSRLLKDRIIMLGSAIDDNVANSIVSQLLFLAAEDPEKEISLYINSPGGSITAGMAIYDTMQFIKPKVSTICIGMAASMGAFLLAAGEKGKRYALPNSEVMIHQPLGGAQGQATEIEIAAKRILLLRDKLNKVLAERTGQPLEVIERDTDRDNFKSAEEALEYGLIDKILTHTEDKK
#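 Purified B. subtilis ClpP, 10 microg/mL final in Tris/HCl pH8 with KCl, BSA, glycerol and Tween-20, cleaved an Abz/nitrotyrosine-quenched decapeptide. Fluorescence (ex 320, em 430) was read at 0 and 20 min at room temperature. Delta was normalized to 5.8 microM ADEP and DMSO/no-enzyme controls.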
# The depositor's hits bear a star; ? = inconclusive; . = not tested or not shown; & = joins results of further samples; [ ] = dose if it differs, or a comment.
SMILES,gsp antag,gsp agonist,Menin MLL FP FL,CtBP-E1A blk,TRPV1 PAM,Sfp PPTase inh,ClpP mod
Cc1ccc(C(=O)NCC(=O)OCc2nnc(-c3ccc([N+](=O)[O-])cc3)o2)s1,-9%,-26%,.,3,-11,.,2.3%
COc1ccc(C2=NOC(Cn3nc(-c4ccccc4)cc3C(=O)NCc3ccco3)C2)cc1 (centres undefined),-6%,.,.,-1,.,.,-2.0%
COCC1CCN(C(=O)CC2C(=O)NCCN2Cc2cccc(Oc3ccccc3)c2)CC1 (centres undefined),-12%,-9%,.,0,1,-16%,-4.1%
O=C(NNC(=O)c1ccccc1Br)c1ccc(Cl)c(Cl)c1,-3%,-1%,0.9,-1,-13,8%,14%
O=C(Cc1coc(-c2ccc(F)cc2)n1)N1CCOCC1,2%,8%,1.2,-9,-3,-2%,-3.8%
Cc1csc(NC(=O)CSc2nc(C)cs2)n1,-7%,-21%,1.7,-1,12,1%,2.4%
Cc1ccc(C(=O)NC2CCCc3ccccc32)cc1[N+](=O)[O-] (centres undefined),-9%,21%[15.4 µM],-5.6,11,-18,-4%,-1.0%
NC(=O)Cn1c(=O)n(CC(=O)N2CCCCC2)c(=O)c2sccc21,7%,26%,3.2,2,15,6%,-3.4%
Cc1ccccc1C(=O)OCCN(C)Cc1ccccc1,4%,-1%,-7.4,7,-5,6%,.
COc1cccc(C2SCC(=O)N2c2ccc(Br)cc2)c1OC (centres undefined),-11%,-4%[15.4 µM],4.0,-2,11,4%,0.5%
Cc1ccc(SCC(=O)Nc2ccc(N3CCOCC3)cc2)cc1,-1%,-4%,2.5,.,-11,16%,-0.7%
COc1ccc(NC(=O)CN(C)C(=O)c2ccc(NS(=O)(=O)c3ccc(F)cc3)cc2)cc1,4%,-17%,.,6,14,.,1.0%
CC(C)CSc1ncnc2c1oc1nc3c(cc12)COC(C)(C)C3,6%,-2%,3.4,-10,7,-2%,?
COCCN1CN(S(=O)(=O)c2ccccc2)c2nc3ccccc3nc21,-24%,21%,1.5,-2,1,23%,119%
Cc1ccc(CNC(=O)CCn2cc(-c3ccc(C)cc3)nc2-c2ccncc2)cc1,0%,.,-0.9,-3,21,-4%,-19%
COc1cccc(NC(=S)Nc2ccc(F)cc2)c1,2%,-56%[inhibitor],-6.8,-4,0,7%,.
CN(CCOc1ccccc1)C(=O)CCc1nc2sc3c(c2c(=O)[nH]1)CCCC3,-20%,-29%,.,3,-4,5%,-5.2%
CCn1c(SCC(N)=O)nc2cc(S(=O)(=O)N3CCOCC3)ccc21,11%,-1%[15.4 µM],3.4,-7,-6,16%,.
Cc1ccc(-n2nnnc2-c2cnn(-c3cccc(F)c3)c2C(F)(F)F)cc1,-12%,3%,3.9,2,-11,26%,1.5%
N#C/C(=C/c1ccc(O)c(O)c1)c1nc2ccccc2[nH]1,-11%,-28%,?,.,13,-28%,0.3%

# Grouped by structure: the compounds so far containing two or more sulfur atoms
SMILES,gsp antag,gsp agonist,Menin MLL FP FL,CtBP-E1A blk,TRPV1 PAM,Sfp PPTase inh,ClpP mod
Cc1csc(NC(=O)CSc2nc(C)cs2)n1,-7%,-21%,1.7,-1,12,1%,2.4%
CCn1c(SCC(N)=O)nc2cc(S(=O)(=O)N3CCOCC3)ccc21,11%,-1%[15.4 µM],3.4,-7,-6,16%,.

# As entered above.
# CC(C)CSc1ncnc2c1oc1nc3c(cc12)COC(C)(C)C3 | gsp agonist: -2%
# Cc1ccc(-n2nnnc2-c2cnn(-c3cccc(F)c3)c2C(F)(F)F)cc1 | gsp agonist: 3%

# An excerpt from above, limited to gsp antag:
smiles	gsp antag
CN(CCOc1ccccc1)C(=O)CCc1nc2sc3c(c2c(=O)[nH]1)CCCC3	-20%
O=C(NNC(=O)c1ccccc1Br)c1ccc(Cl)c(Cl)c1	-3%
NC(=O)Cn1c(=O)n(CC(=O)N2CCCCC2)c(=O)c2sccc21	7%
COCC1CCN(C(=O)CC2C(=O)NCCN2Cc2cccc(Oc3ccccc3)c2)CC1 (centres undefined)	-12%

# Continuation.
SMILES,gsp antag,gsp agonist,Menin MLL FP FL,CtBP-E1A blk,TRPV1 PAM,Sfp PPTase inh,ClpP mod
Cc1cccc(N(C)S(=O)(=O)c2cccc3nsnc23)c1,-30%,-42%[inhibitor],-0.8,-10,8,10%,-1.3%
Cc1ccc(-c2nc3ccccc3o2)cc1NC(=O)Cc1cccs1,1%,?,?,10,-10,-4%,-0.3%
CCC(=O)Nc1ccc2c(c1)nc(CCNC(=O)c1ccco1)n2C,-1%,2%,-2.1,5,-3,11%,.
CC(=O)N1c2ccc(S(=O)(=O)NCC3CCC(C(=O)Nc4ncccc4C)CC3)cc2CC1C (centres undefined),17%,-3%,.,-1,-3,28%,0.4%
CC(=O)c1c(C)[nH]c(C(=O)OCc2ccc(Br)cc2)c1C,?,16%[15.4 µM],-0.4,-1,16,5%,.
CCCc1cc(=O)oc2cc(OCC(=O)NCCCN3CCOCC3)c(Cl)cc12,5%,-7%,.,.,4,16%,-25%
CCCCCN(C(=O)NC(=O)NC(C)CC)S(C)(=O)=O (centres undefined),8%,7%,4.4,10,11,13%,0.7%
COCCn1c(C)cc(C(=O)COC(=O)CCS(=O)(=O)c2ccc(C)cc2)c1C,0%,7%[15.4 µM],.,-2,8,.,.
Cc1cc2c(c(=O)n1CCCn1ccnc1)C(c1ccco1)C(C#N)=C(N)O2 (centres undefined),5%,-29%,0.1,0,1,14%,-9.8%
COC(=O)c1cc(S(=O)(=O)NCC2CCN(CCc3cccs3)CC2)cn1C,5%,?,.,-20,-7,6%,-2.0%
Cc1ccc2c(c1)C1CN(C)CCC1N2C(=O)c1ccc(Cl)c(S(=O)(=O)N2CCOCC2)c1 (centres undefined),-1%,34%,0.6,-7,-15,6%,0.0%
CN(Cc1ccccc1)C(=O)COC(=O)COc1ccc(C#N)cc1,-31%,24%,.,8,-12,16%,0.7%
Cc1cc(C)n(-c2ccc(F)cc2CN2CCN(Cc3ccccc3)C(CCO)C2)n1 (centres undefined),1%,17%,-1.0,9,-1,16%,.
CC12C=CC(=O)C=C1CCC1C2C(=O)CC2(C)C1CCC2(O)C(=O)CO (centres undefined),-1%,.,.,-10,.,.,2.1%
CCN(c1ccccc1)S(=O)(=O)c1ccc(C(=O)NCC2(N(C)C)CCCCC2)cc1,13%,15%,.,-26,29,.,-3.5%
CCCCOC(=O)C1=C(C)NC(=O)NC1c1cc2c(cc1Br)OCO2 (centres undefined),2%,-13%,-4.3,4,3,-2%,0.0%
Oc1ccc(Br)cc1/C=N/Nc1nc(N2CCCCC2)nc(N2CCOCC2)n1,-13%,-35%[inhibitor],-2.0,13,-2,6%,.
CCc1nn(CC(=O)NCc2ccccc2Cl)c(=O)c2cccn12,0%,13%,.,7,-10,14%,1.0%&0.7%
Cc1ccc(Cl)cc1NC(=S)N(C)N,6%,-28%,-1.7,-7,-2,?,-2.9%
O=C(Nc1ccccc1)/C(=C/c1ccc([N+](=O)[O-])cc1)NC(=O)c1ccccc1,8%,-3%,2.4,0,-10,-12%,1.5%
O=C(NCC1CCCO1)c1cc(-c2ccccc2)on1 (centres undefined),-4%,-1%,-1.1,14,-9,6%,-0.4%
O=C(NCc1ccc(F)cc1)C(c1ccc(F)cc1)N(C(=O)c1csnn1)C1CC1 (centres undefined),-4%,13%,-2.5,6,4,7%,.
O=C(CN1C(=O)C2(OCCO2)c2ccccc21)c1ccc(Cl)cc1,-8%,-6%,0.7,8,6,-7%,1.6%
Cc1nn(Cc2ccc(Cl)cc2)c(C)c1NC(=O)CSc1n[nH]c(C)c1[N+](=O)[O-],8%,-3%,-5.6,4,24,-10%,1.2%
CCCCn1c(N)c(N(CCOC)C(=O)c2cc(Cl)nc3ccccc23)c(=O)[nH]c1=O,-2%,12%,.,3,18,.,-5.5%
O=C1OCCC1S(=O)(=O)c1ccc2ccccc2c1 (centres undefined),-7%,?,1.2,10,11,6%,-2.4%
Cc1ccccc1C(=O)Nc1c(-c2cccs2)c(=O)c2ccccc2n1C,-12%,-4%,3.2,.,17,18%,-1.2%
O=C(O)c1ccc(N/N=C/c2cc3c(cc2[N+](=O)[O-])OCO3)cc1,-36%,-14%,6.9,?,0,1%,.
O=C(CSc1nc2c(cnn2-c2cccc(Cl)c2)c(=O)[nH]1)NCCC1=CCCCC1,4%,9%,.,.,5,.,-8.1%
Cc1ccc(-c2nc3cc(C)ccc3o2)cc1,16%,16%,4.9,5,-1,14%,32µM*
COC(=O)c1oc2ccccc2c1NC(=O)/C=C/C(=O)O,10%,0%,-2.1,6,-4,16%,.
O=C(NCc1ccccc1F)c1ccc2c(c1)OCCO2,7%,-8%[15.4 µM],-0.8,12,-6,20%,-0.1%

# 3 entries picked at random from the list so far:
SMILES,gsp antag,gsp agonist,Menin MLL FP FL,CtBP-E1A blk,TRPV1 PAM,Sfp PPTase inh,ClpP mod
O=C1OCCC1S(=O)(=O)c1ccc2ccccc2c1 (centres undefined),-7%,?,1.2,10,11,6%,-2.4%
Cc1nn(Cc2ccc(Cl)cc2)c(C)c1NC(=O)CSc1n[nH]c(C)c1[N+](=O)[O-],8%,-3%,-5.6,4,24,-10%,1.2%
CCC(=O)Nc1ccc2c(c1)nc(CCNC(=O)c1ccco1)n2C,-1%,2%,-2.1,5,-3,11%,.
